Source: PubChem (several laboratories)
Calb FLC: C. albicans growth modulation with fluconazole. growth inhibition, % (concentration not given with the values). hit rate 0.57% among 300,000. C. albicans CaCi-2 (fluconazole-resistant clinical isolate) + fluconazole, Alamar Blue growth, 48 h;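 active means most replicates above 75%; inconclusive means exactly half above 75%; inactive means most below 75%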;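 further: all wells also contain fluconazole at 8 µg/ml as a sub-toxic cotreatment; 0% = median of DMSO wells and 100% = median of geldanamycin control wells; wells of about 8 µL received 7.5 nL stock; the first replicate is given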
ALR H2O2 inh: blocks human ALR sulfhydryl oxidase activity; inhibition, % (test concentration not listed); purified ALR, DTT oxidation, H2O2 HRP-luminol luminescence; hit rate 3.8% among 290,000;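 active means mean and each replicate at 75% or more; inconclusive means only one of the two met; inactive means neither met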;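 further: stock transfer was 7.5 nL into about 7.5 µL; 0% = neutral wells and 100% = wells with inactivated enzyme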
HNF4A DNA FP: change in binding of human HNF4 alpha to DNA | P41235 | hit rate 0.3% among 360,000 | activity change, % at 10 µM | HNF4a-FITC DNA binding, fluorescence polarization, 1 h | AID 1224865; in the data active means activity change above about 30%, passing the limit was not always enough;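 further: controls were the assay level and a saturating level of protein; the project sought stronger binding though the title names inhibitors; some compounds called inactive have numbers as strong as hits; positive values seem to mean higher polarization but the record does not say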
RanGTP-Imp inh: disruptors of Ran-importin-beta complex formation – biochemical, FRET, CFP-Ran, YFP-importin-beta, homogeneous, primary screen; cell-free CFP-Ran/YFP-importin-beta FRET ratio; inhibition, % (no concentration beside the values); hit rate 1.1% among 300,000;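 active means most replicates above 15%; inconclusive means exactly half above 15%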;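 further: 0% = DMSO wells and 100% = Ran loaded with GDP instead of GTP; wells of about 40 µL received 100 nL stock; the first replicate is given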
Vif A3G: inhibitors of Vif binding to APOBEC3G peptide, primary screen, biochemical, TR-FRET, GST-Vif 1-94, biotin-A3G peptide, dose response retest (AID 1117319); inhibition, %; hits with a dose series show IC50 in µM; TR-FRET GST-Vif / biotin-A3G peptide binding; higher % means a stronger effect; test concentration not given here; strong numbers were not always called active; hit rate 0.57% among 260,000;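 active means above the screen mean plus three standard deviations and confirmed in dose response; inconclusive means results disagree or hit not tested in dose response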;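 further: Vif residues 1-94 fused to GST binding biotinylated APOBEC3G peptide 110-148; 0% = full assay without inhibitor and 100% = GST in place of GST-Vif; retest series ran down from 100 µM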
LANA-H2A inh: blocks KSHV LANA binding to histone H2A/H2B. inhibition, % (test concentration not listed). hit rate 0.6% among 320,000. cell-free LANA-H2A/H2B peptide, fluorescence polarization. Q9QR71; in the data active means inhibition mostly above about 10%, no sharp cut-off; inactive means mostly below about 6.7%;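 further: stock transfer was 7.5 nL into about 10 µL; 0% = median of vehicle wells and 100% = median of positive control wells; one replicate is shown; the record names a cut of 25% in any replicate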
Target sequence (Q9QR71 whole entry, looked up): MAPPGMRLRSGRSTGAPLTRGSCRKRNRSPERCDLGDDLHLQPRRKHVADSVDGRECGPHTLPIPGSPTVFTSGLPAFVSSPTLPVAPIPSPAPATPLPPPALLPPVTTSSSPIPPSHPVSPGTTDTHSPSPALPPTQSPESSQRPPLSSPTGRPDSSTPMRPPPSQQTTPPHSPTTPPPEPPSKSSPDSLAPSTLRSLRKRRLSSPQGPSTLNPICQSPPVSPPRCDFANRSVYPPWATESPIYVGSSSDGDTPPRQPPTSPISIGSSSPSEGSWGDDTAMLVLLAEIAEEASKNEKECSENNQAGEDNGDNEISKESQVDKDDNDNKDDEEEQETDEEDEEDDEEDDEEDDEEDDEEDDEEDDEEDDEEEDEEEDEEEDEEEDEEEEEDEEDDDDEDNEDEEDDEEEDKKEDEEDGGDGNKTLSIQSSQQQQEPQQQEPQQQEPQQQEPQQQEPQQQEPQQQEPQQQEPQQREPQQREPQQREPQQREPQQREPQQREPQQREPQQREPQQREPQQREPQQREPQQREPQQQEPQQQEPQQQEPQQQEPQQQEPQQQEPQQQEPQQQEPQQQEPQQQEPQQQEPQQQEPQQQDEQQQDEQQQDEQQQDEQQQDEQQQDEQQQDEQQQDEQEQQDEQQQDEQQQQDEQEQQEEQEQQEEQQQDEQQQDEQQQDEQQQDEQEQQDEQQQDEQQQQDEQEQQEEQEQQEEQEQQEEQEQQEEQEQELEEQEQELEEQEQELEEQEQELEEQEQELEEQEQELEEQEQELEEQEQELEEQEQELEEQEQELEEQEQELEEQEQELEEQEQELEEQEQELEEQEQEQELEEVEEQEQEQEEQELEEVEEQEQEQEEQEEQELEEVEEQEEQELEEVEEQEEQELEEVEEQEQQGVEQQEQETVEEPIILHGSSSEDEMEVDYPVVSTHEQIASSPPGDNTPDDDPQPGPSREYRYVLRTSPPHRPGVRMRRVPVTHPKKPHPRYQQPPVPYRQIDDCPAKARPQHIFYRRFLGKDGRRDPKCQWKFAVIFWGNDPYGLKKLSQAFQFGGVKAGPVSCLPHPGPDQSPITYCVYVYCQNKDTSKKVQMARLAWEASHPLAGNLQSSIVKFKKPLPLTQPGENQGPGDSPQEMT
Beta2AR agonist: activates human beta-2 adrenergic receptor causing internalization. Am2.2-beta2AR cells, FAP receptor internalization, flow cytometry; reference of the scale not given here. response, % (no concentration beside the values). hit rate 0.43% among 340,000;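 active means response above a set limit, near 3 SD of response in nonfluorescent compounds, cut at about 42% in these data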;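 further: stock transfer was 100 nL into about 11 µL; a reference agonist was the positive control; negative values mostly stem from fluorescent compounds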
Active calls of the source: *; ? = inconclusive; . = not tested or not shown; & = joins results of further samples.

Keys – A = Calb FLC; B = ALR H2O2 inh; C = HNF4A DNA FP; D = RanGTP-Imp inh; E = Vif A3G; F = LANA-H2A inh; G = Beta2AR agonist
1) CN1CCN(C(=O)c2ccc(Oc3ccc([N+](=O)[O-])cc3)cc2)CC1
  A = 7 | B = 1 | C = -1.1 | D = 2.1 | E = 23% | F = 1.7 | G = 1

2) O=C(NCc1ccc(Cl)cc1)C1CCCN(c2cnccn2)C1 (stereo not given)
  A = 1 | B = -11 | C = 0.8 | D = 2.9 | E = . | F = -2.5 | G = -3

3) NC(=O)C1=C[C@@H](C2CCCCC2)C[C@@H](OCCCCO)O1
  A = -3 | B = . | C = 1.9 | D = -0.9 | E = ? | F = -3.8 | G = 2

4) COCCCn1c(SCc2nnc(-c3ccc(OC)c(OC)c3)o2)nc2ccccc2c1=O
  A = 1 | B = . | C = -2.5 | D = ? | E = 33% | F = -0.9 | G = 1

5) CCN(CC)CCCN1C(=O)CSC1c1ccc([N+](=O)[O-])cc1 (stereo not given)
  A = -12 | B = -10 | C = -0.7 | D = 4.7 | E = . | F = 1.9 | G = -1

6) CC(NCc1cc(Br)ccc1OCC(=O)NCc1ccccc1)c1ccccc1 (stereo not given)
  A = ? | B = . | C = 0.7 | D = 1.6 | E = ? | F = 4.0 | G = 0

7) COc1cc(COCC(O)CN2CCN(Cc3ccccc3)CC2)cc(OC)c1OC (stereo not given)
  A = -22 | B = -6 | C = -4.1 | D = -0.8 | E = -6% | F = -2.2 | G = 0

8) CCN(CC)CCCNC(=O)c1cc(-c2ccc(Cl)c(Cl)c2)on1
  A = -2 | B = 7 | C = -4.6 | D = -1.5 | E = -2%&23% | F = 19* | G = 32

9) C[C@H]1CN([C@@H](C)CO)C(=O)Cc2cc(NS(=O)(=O)c3cn(C)cn3)ccc2O[C@@H]1CN(C)C(=O)Nc1ccc(F)cc1
  A = . | B = 2 | C = -1.6 | D = . | E = . | F = 2.2 | G = -6

10) C=CCC[C@@H](Cc1ccc(F)cc1)C(=O)OCCNC(=O)[C@@H](CC=C)CC(=O)N(CCO)Cc1ccccc1
  A = . | B = -6 | C = -5.6 | D = . | E = . | F = 5.1 | G = -5

11) CCCOc1ccc(/C(O)=C2/C(=O)C(=O)N(CCCn3ccnc3)C2c2cccnc2)cc1 (stereo not given)
  A = 2 | B = -10 | C = 3.5 | D = -0.4 | E = -13% | F = 4.0 | G = -7

12) Cc1cc(-c2nc(C)c(C(=O)NNC(=O)NC(C)C)s2)no1
  A = -16 | B = 42 | C = 4.4 | D = 2.3 | E = -3% | F = 2.1 | G = 2

13) COc1ccc(-c2c(NC(=O)c3ccco3)oc3ccc(Cl)cc3c2=O)cc1
  A = -2 | B = -2 | C = 3.3 | D = 4.0 | E = . | F = -1.9 | G = 25

14) CN(C(=O)c1ccc(N2CCOCC2)c([N+](=O)[O-])c1)C1CCCCC1
  A = 0 | B = 2 | C = -3.2 | D = 2.8 | E = . | F = -2.7 | G = 2

15) CC(C)CCNC(=O)C1CCN(S(=O)(=O)c2ccc3c(c2)CCC(=O)N3)CC1
  A = 14 | B = 84* | C = -0.8 | D = 3.5 | E = -2% | F = 0.8 | G = -2

16) Cn1cnc2c(N/N=C/c3cccs3)ncnc21
  A = -3 | B = 21 | C = -1.7 | D = ? | E = 1% | F = -3.3 | G = -11

17) CCC(C)CCN1C(Nc2ccccc2)=NC[C@@H]1C (stereo not given in full)
  A = -14 | B = 5 | C = 1.2 | D = 5.7 | E = . | F = 4.2 | G = -6

18) Cc1cccc(OCC(O)CN2CC3(C)CC2CC(C)(C)C3)c1 (stereo not given)
  A = -25 | B = 0 | C = 0.6 | D = 3.7 | E = 9% | F = -5.2 | G = 2

19) CC(NC(=O)C(C)(C)C)c1nc2ccccc2n1C (stereo not given)
  A = 0 | B = -6 | C = 2.9 | D = 3.5 | E = -1% | F = -4.6 | G = -3

20) N#C/C(=C\c1ccc(N2CCOCC2)cc1)c1ccccc1
  A = 87* | B = 65 | C = -0.3 | D = 7.6 | E = ? | F = -5.5 | G = -1

21) CCCCN(C(=O)c1cc2c(s1)CCCC2)c1c(N)n(CCC)c(=O)[nH]c1=O
  A = . | B = 0 | C = 3.3 | D = . | E = -11% | F = -5.2 | G = 2

22) Cc1ccc(NC(=O)c2ccc(Oc3ncccn3)cc2)cc1
  A = 3 | B = -5 | C = -2.3 | D = 0.3 | E = -9% | F = -2.9 | G = 8

23) COc1ccccc1/C=N/N1CCN(c2ccc(Cl)cc2)CC1
  A = -1 | B = -1 | C = -3.6 | D = -1.7 | E = . | F = 9.0 | G = -3

24) Cc1ccccc1-c1nnc(SCc2ccc(F)cc2)o1
  A = -18 | B = -20 | C = 0.8 | D = -1.7 | E = 2% | F = -0.8 | G = 14

25) CCN(Cc1ccccc1)C(=O)c1c[nH]c2ccc(S(=O)(=O)N(C)CCC#N)cc2c1=O
  A = 5 | B = -2 | C = -2.0 | D = -2.1 | E = 0% | F = -1.2 | G = -7

(listing goes on)
Value order: Calb FLC, ALR H2O2 inh, HNF4A DNA FP, RanGTP-Imp inh, Vif A3G, LANA-H2A inh, Beta2AR agonist
(26) O=C(Nc1ccccc1-c1nc2ccccc2[nH]1)c1sc2ccccc2c1Cl
    12, ., ., -4.3, 26%, -5.2, .
(27) O=C(NCc1ccc(F)cc1)C1CCC(CNS(=O)(=O)c2ccccc2)CC1 (stereo not given)
    0, 5, 3.1, ?, -13%, 2.6, -8
(28) O=S(=O)(c1cccs1)N1CCN(c2ccc(F)cc2)CC1
    5, 15, -2.7, -3.2, ., 3.3, 0
(29) COc1ccc(CCNC(=O)COC(=O)C23CC4CC(CC(Br)(C4)C2)C3)cc1
    5, 54, 1.4, 2.4, -5%, -5.0, 6
(30) N#C/C(=N\Nc1ccc(S(=O)(=O)N2CCc3ccccc32)cc1)C(N)=S
    -8, -1, 4.9, -3.1, ?, -1.5, 18
(31) O=C(COc1ccccc1Br)N1CCN(C(=O)c2cccs2)CC1
    ., 1, -2.8, ., -14%, -1.0, 5
(32) Cc1cc(C)n2nc(-c3cnn(C)c3C(F)(F)F)cc2n1
    1, -1, 2.8, -3.0, -3%, -0.7, -21
(33) COc1ccc(OCCCCn2c(CO)nc3ccccc32)cc1
    2, -18, -1.8, 6.9, ., -0.4, 2
(34) CC(C)CCc1noc(CN2CCC(CCN3CCCC3=O)CC2)n1
    -8, 0, 0.2, 0.1, -1%, 11*, -6
(35) CCc1cc(=O)[nH]c(-n2[nH]c(-c3ccccc3)cc2=O)n1
    0, 29, 1.6, 1.1, 27%, 1.5, -3

Molecules shown so far with four or more nitrogen atoms, in the order listed:
Value order: Calb FLC, ALR H2O2 inh, HNF4A DNA FP, RanGTP-Imp inh, Vif A3G, LANA-H2A inh, Beta2AR agonist
(2) O=C(NCc1ccc(Cl)cc1)C1CCCN(c2cnccn2)C1 (stereo not given)
    1, -11, 0.8, 2.9, ., -2.5, -3
(4) COCCCn1c(SCc2nnc(-c3ccc(OC)c(OC)c3)o2)nc2ccccc2c1=O
    1, ., -2.5, ?, 33%, -0.9, 1
(9) C[C@H]1CN([C@@H](C)CO)C(=O)Cc2cc(NS(=O)(=O)c3cn(C)cn3)ccc2O[C@@H]1CN(C)C(=O)Nc1ccc(F)cc1
    ., 2, -1.6, ., ., 2.2, -6
(11) CCCOc1ccc(/C(O)=C2/C(=O)C(=O)N(CCCn3ccnc3)C2c2cccnc2)cc1 (stereo not given)
    2, -10, 3.5, -0.4, -13%, 4.0, -7
(12) Cc1cc(-c2nc(C)c(C(=O)NNC(=O)NC(C)C)s2)no1
    -16, 42, 4.4, 2.3, -3%, 2.1, 2
(16) Cn1cnc2c(N/N=C/c3cccs3)ncnc21
    -3, 21, -1.7, ?, 1%, -3.3, -11
(21) CCCCN(C(=O)c1cc2c(s1)CCCC2)c1c(N)n(CCC)c(=O)[nH]c1=O
    ., 0, 3.3, ., -11%, -5.2, 2
(25) CCN(Cc1ccccc1)C(=O)c1c[nH]c2ccc(S(=O)(=O)N(C)CCC#N)cc2c1=O
    5, -2, -2.0, -2.1, 0%, -1.2, -7
(30) N#C/C(=N\Nc1ccc(S(=O)(=O)N2CCc3ccccc32)cc1)C(N)=S
    -8, -1, 4.9, -3.1, ?, -1.5, 18
(32) Cc1cc(C)n2nc(-c3cnn(C)c3C(F)(F)F)cc2n1
    1, -1, 2.8, -3.0, -3%, -0.7, -21
(34) CC(C)CCc1noc(CN2CCC(CCN3CCCC3=O)CC2)n1
    -8, 0, 0.2, 0.1, -1%, 11*, -6
(35) CCc1cc(=O)[nH]c(-n2[nH]c(-c3ccccc3)cc2=O)n1
    0, 29, 1.6, 1.1, 27%, 1.5, -3
